HIV TAR-Tat: HIV-1 TAR-Tat binding disruption; HIV-1 TAR RNA, Tat peptide displacement FRET; hits give high values; z-score (concentration not given with the values); 100,000 tested, 0.6% active;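 note: score is relative to mean and SD of negative controls; some compounds called inactive have numbers as strong as hits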
CDC25B-CDK2 inh: human CDC25B-CDK2/CyclinA binding inhibition; z-score (no concentration beside the values); HTRF CDC25B-CDK2/CyclinA binding, anti-His/anti-Flag; hits give high values; AID 1259370; P30305+P24941; 94,000 tested, 0.72% active;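 note: score is relative to mean and SD of negative controls; strong numbers were not always called active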
Numbers without * were called inactive; / = not tested or not shown.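 Rule for the calls: active = z-score from 3 up in half or more of its runs; inactive = the rest.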

Molecule | HIV TAR-Tat | CDC25B-CDK2 inh
O=C(Nc1c(C(=O)Nc2cccc(Cl)c2)oc2ccccc12)c1cc(=O)c2ccccc2o1 | -0.11 | -1.62
CC1=C(c2ccccc2)S(=O)(=O)N=C1N(Cc1ccccc1)C(C)C | 1.08 | -0.95
CCCCCSc1nc2n(n1)C(c1ccc(OC)cc1)C1=C(CCCC1=O)N2 (configuration not stated) | 0.19 | -0.79
Cc1cc(C)nc(SCCS(=O)(=O)Cc2ccc(Cl)cc2)n1 | / | -1.79
Cc1ccc(NC(=O)N2CCN(c3cc(-c4noc(C)n4)ccc3C)CC2)c(C)c1 | 1.04 | /
CCC1CCCCN1C(=O)Cn1c(=O)oc2cc(S(=O)(=O)N3CCCCC3)ccc21 (configuration not stated) | 1.3 | -0.66
C=CCSc1nnc(NC(=O)c2nn(-c3ccc(Cl)cc3)ccc2=O)s1 | 0.51 | 0.49
CCN1CCCC1CNC(=O)c1nn(C)c2c1COc1ccccc1-2 (configuration not stated) | 1.36 | -2.07
CCOC(=O)c1c(C)[nH]c(C)c1S(=O)(=O)NCCc1sccc1C | 0.18 | /
Cc1c(Cl)cccc1NC(=O)N1CC(C)Sc2ccccc21 (configuration not stated) | 1.32 | /
CCOc1ccc(N(C)S(=O)(=O)c2ccc3[nH]c(=O)ccc3c2)cc1 | 1.9 | /
COc1cnc(CSc2nnc(C)s2)cc1OCC(=O)Nc1cc(C)on1 | 0.66 | /
N#CCC(=O)NNC(=S)NCc1cccs1 | / | -1.47
CCCSc1nc2c3cc(OC)ccc3n(C)c2c(=O)n1CCO | 0.12 | -1.22
O=C(O)CCC(=O)Nc1cc2c(cc1Br)OCCO2 | 1.44 | -0.56
COc1ccc(C(=O)CN2CCN(c3cc(C)nc4ccccc34)CC2)cc1 | / | -0.15
COc1ccc(OC)c(NC(=O)CN2C(=O)c3ccccc3S2(=O)=O)c1 | -0.25 | -0.88
CN(CCNC(=O)c1cc2ccc3cccnc3c2[nH]1)C1CCCCC1 | -1.02 | /
CCOc1ccc(/C(O)=C2/C(=O)C(=O)N(CCCOC)C23C(=O)N(CC)c2ccccc23)cc1 (configuration not stated) | 0.7 | 0.26
CC(C)(C)C1CCc2c(sc3nc(CCC(=O)NC4CCCC4)[nH]c(=O)c23)C1 (configuration not stated) | -0.74 | /
CCCc1nn2c(=O)cc(COC(=O)c3cccc(F)c3)nc2s1 | 0.83 | /
O=C(CN1C(=O)COc2ccc(S(=O)(=O)N3CCOCC3)cc21)NCC1CCCO1 (configuration not stated) | -0.25 | /
Cc1nn2cnnc2c(C)c1CCC(=O)NCc1cccs1 | 0.31 | /
O=C(Nc1nccs1)c1cc2c(Cl)nc3ccccc3c2s1 | / | -1.42
COc1ccc(C2=NOC(C(=O)N3CCCC3)C2)cc1 (configuration not stated) | 1.37 | -0.27
Cc1onc(-c2c(F)cccc2Cl)c1C(=O)Nc1cccc2nsnc12 | / | -1.57
COc1cccc(-c2nnc(-c3ccccc3NC(=O)c3ccc(Cl)cc3)o2)c1 | / | -2.27
CCn1cc(CCCC(=O)NC2CCC(C)CC2)c2ccccc21 (configuration not stated) | 1.75 | /
O=C(NCC1COc2ccccc2O1)C1CCN(S(=O)(=O)c2cnc[nH]2)CC1 (configuration not stated) | 1.1 | -0.4
COc1ccc(S(=O)(=O)N2CCN(c3ccccc3)CC2)cc1OC | / | 1.54
CCOC(=O)c1c(C)oc2cc(Br)c(OCC(=O)OC(C)(C)C)cc12 | -0.13 | -3.26
COc1cccc(OCCn2c(CN3CCCCC3)nc3ccccc32)c1 | -0.18 | -1.5
CCCS(=O)(=O)Nc1ccc2c(c1)CCC(=O)N2 | 0.9 | /
N/C(=N\O)c1ccc(C2OCCO2)cc1 | / | -1.11
CC1(C)Cc2c(sc3ncn4nc(-c5cccnc5)nc4c23)C(C)(C)N1 | -0.31 | 0.73
CCOCCSc1ncc(CO)n1Cc1ccc(OC)cc1 | 2.77 | /
CC1=NC(O)(C23CC4CC(CC(C4)C2)C3)C(C)S1 (configuration not stated) | / | -0.59
COC(=O)C(=Cc1ccc(-c2ccsc2C(=O)OC)o1)C(=O)OC | / | -1.24
O=C(CCCN1C(=O)c2cccnc2Oc2ccccc21)NCc1cccs1 | 1.03 | /
CCOc1ccc2c(c1)CN(Cc1ccc(Cl)cc1)CO2 | 0.15 | -0.44
Cc1ccc(/C(O)=C2\C(=O)C(=O)N(c3nnc(C)s3)C2c2ccc(C)cc2)cc1 (configuration not stated) | / | -1.48
O=C(c1nn2c(c1Br)NC(c1cccs1)CC2C(F)(F)F)N1CCCc2ccccc21 (configuration not stated) | / | -1.52
Cn1c(=O)c2sccc2n2c(CCCC(=O)N3CCN(c4ncccn4)CC3)nnc12 | -0.46 | /
Cc1ccc(NNC(=O)c2scc(S(=O)(=O)c3ccc(Cl)cc3)c2C)cc1 | / | -1.38
COc1cccc(Nc2nc(NCCN(C)C)nc3c2cnn3C)c1 | 1.43 | /
COc1ccc(N2CCN(S(=O)(=O)CCNS(=O)(=O)c3ccc(Cl)cc3)CC2)cc1 | 1.51 | /
CCOC(=O)c1sc(-n2[nH]c(=O)c3ccccc3c2=O)c(C(=O)OCC)c1C | / | -2.8
CC1CC(C)CN(S(=O)(=O)N2CCCC(C(=O)NCCC3=CCCCC3)C2)C1 (configuration not stated) | 0.96 | /
CCOC(=O)c1nnn(-c2nonc2N)c1-c1cccs1 | -0.16 | -0.39
CCOCCCNC(=O)N1c2ccccc2NC2=C(C(=O)CC(C)(C)C2)C1c1cccs1 (configuration not stated) | -0.36 | /
O=C(Nc1c[nH]c2ccccc2c1=O)N1CCCC1 | 0.17 | -1.34
CCc1ccc(N2CC(O)Cn3c2nc2c3c(=O)n(C)c(=O)n2C)cc1 (configuration not stated) | / | -0.13
CC1CCC(NC(=O)C2(C)Cn3c(cc4occc43)C(=O)N2C2CCC(C)CC2)CC1 (configuration not stated) | 5.38* | /
O=C(Nc1ccc(F)c(F)c1)c1cnc2sc(N3CCOCC3)nn2c1=O | 0.21 | -1.03
CCOc1ccc(C2/C(=C(\O)c3ccc(C)cc3)C(=O)C(=O)N2Cc2cccnc2)cc1 (configuration not stated) | 0.73 | -1.79
CCC(C)(C(=O)NC1CCCCC1)N(C(=O)c1cnccn1)c1c(C)n(C)n(-c2ccccc2)c1=O (configuration not stated) | 0.73 | 0.09
Cc1c(C(=O)Nc2nc3c(s2)CCCC3)oc2ccc(F)cc12 | 0.21 | -1.08
CCOC(=O)c1c(C)oc2ccc(OCC(=O)c3ccc(Br)cc3)cc12 | 2.17 | -0.48
N#Cc1ccc(Oc2sccc2[N+](=O)[O-])cc1 | / | -2.53
O=C(COc1ccccc1Cl)Nc1ccccc1SCc1cc(=O)n2nc(C3CC3)sc2n1 | -0.53 | /

Single records, from the list above. Screens in order: HIV TAR-Tat, CDC25B-CDK2 inh
CCOCCCNC(=O)N1c2ccccc2NC2=C(C(=O)CC(C)(C)C2)C1c1cccs1 (configuration not stated) is entered as -0.36, /
COc1cccc(OCCn2c(CN3CCCCC3)nc3ccccc32)c1 is entered as -0.18, -1.5
N#Cc1ccc(Oc2sccc2[N+](=O)[O-])cc1 is entered as /, -2.53
COc1ccc(N2CCN(S(=O)(=O)CCNS(=O)(=O)c3ccc(Cl)cc3)CC2)cc1 is entered as 1.51, /
COc1cccc(-c2nnc(-c3ccccc3NC(=O)c3ccc(Cl)cc3)o2)c1 is entered as /, -2.27

Following part.
Molecule | HIV TAR-Tat | CDC25B-CDK2 inh
Cc1c(Cl)cccc1-n1nnc(-c2nc(-c3ccccc3)no2)c1N | 0.51 | /
O=C(CSc1nccn1C1CCCC1)Nc1ccc2c(c1)OCO2 | 1.62 | /
c1ccc(CN2CCC(Nc3c4c(nc5ncnn35)CCCC4)CC2)cc1 | 0.64 | /
COCCNC(=O)c1cc2c(=O)n3cccc(C)c3nc2s1 | / | -0.86
O=C(CCS(=O)(=O)c1ccc2c(c1)NC(=O)CS2)Nc1ccccc1Br | 0.2 | /
CCN(CC)c1ccc(NS(=O)(=O)c2ccccc2)cc1 | 0.71 | -2.83
O=C(CCCC(=O)N1CCCC1)N1CCCC1 | / | -1.12
COCCNC(=O)Cn1cc2c(n1)CCCC2 | / | -0.62
O=[N+]([O-])c1ccc(C=Nc2ccc(-c3cnco3)cc2)cc1 | / | -1.55
Cc1nc([N+](=O)[O-])c(Br)n1CC(=O)c1ccc(Cl)cc1 | 2.13 | -1.54
Cc1cc(F)ccc1NS(=O)(=O)c1cc(-c2cnc(C3CC3)o2)ccc1C | 0.14 | /
COCCNc1nc2c(-c3cccc(C(F)(F)F)c3)nnn2c2ccccc12 | / | -3.41
CCCCNc1nc2c(c(=O)n(C)c(=O)n2C)n1CC(O)COc1ccccc1 (configuration not stated) | 1.15 | -0.98
CCCCC(=O)Nc1ccc(SCc2cc(=O)n3c(ncn3C(C)C)n2)cc1 | -0.81 | -1.24
Cc1nn(C(=O)c2ccncc2)c(C)c1Sc1ccc(Br)cc1 | 0.07 | -1.07
Cc1nnc(NC(=O)CSc2nnc(Cn3c(=O)sc4ccccc43)n2-c2ccccc2)s1 | 0.73 | 0.08
CCOc1ccc(-c2cccc(NS(=O)(=O)c3cccc(C)c3)c2)nn1 | 1.28 | /
O=C(CSc1nc(-c2ccco2)cc(C(F)(F)F)n1)N1CCN(c2cccc(Cl)c2)CC1 | 0.07 | -0.46
Cc1ccc2c(=O)c(C(=O)c3ccccc3C)coc2c1 | 0.6 | 0.04
COc1cc2nc(CN3CCC(C(N)=O)CC3)[nH]c(=O)c2cc1OC | 1.6 | -0.57
CC(=O)N1CCc2c(c(=O)[nH]c3onc(C)c23)C1 | 1.23 | /
CN1CCN(C(=O)c2c(O)c3cccc4c3n(c2=O)CC4)CC1 | / | -1.02
Cc1cc2n(n1)C(/C=C\c1ccccc1)Nc1c(C)cccc1-2 (configuration not stated) | 2.99 | 0.52
COc1ccc(Nc2cc(C(F)(F)F)ccc2Cl)c(C(=O)O)c1 | / | -2.32
CC1C(c2ccccc2)OCCN1CN1C(=O)c2ccccc2C1=O (configuration not stated) | / | -0.91
CC(C)(C)NC(=O)CSc1nnc(NC(=O)Cn2c(=O)sc3ccccc32)s1 | -1.58 | -1
COc1ccc2c(c1)CC(C(=O)NCCC1=CCCCC1)CO2 (configuration not stated) | 0.3 | /
CC1=NC2c3c(oc(C(=O)NCc4ccc(F)cc4)c3C)CCC2S1 (configuration not stated) | 2.24 | /
O=[N+]([O-])c1cc(C(F)(F)F)cc([N+](=O)[O-])c1Oc1ccc(C2SCCS2)cc1 | / | 0.65
Cc1csc2nc(CCNS(=O)(=O)c3ccccc3)cn12 | 1.34 | /
Cn1c(=O)c2c(nc(NCc3ccccc3)n2Cc2ccccc2Cl)n(C)c1=O | -0.24 | -0.57
O=C(NCC1COc2ccccc2O1)NC(=O)c1ccc(Cl)cc1 (configuration not stated) | / | -1.25
COc1ccc(C2=NN3C(C2)c2cc(Br)ccc2OC3c2cccnc2)cc1 (configuration not stated) | 0.38 | -0.82
CS/C(N)=C(\C#N)C(C)=O | / | -1.17
Cc1ccc(NS(=O)(=O)c2ccc(-c3cnc(C4CC4)o3)cc2)c(Br)c1 | 2.21 | /
COc1ccc(Nc2cc(C)nc3nc(-c4ccco4)nn23)cc1 | 2.07 | -0.99
CCOC(=O)N1CCN(C(=O)c2ccc3nc4sc5c(c4c(=O)n3c2)CCCC5)CC1 | 1.77 | /
COC(=O)c1c[nH]n2c(NC3CCCC3)c(-c3ccc(C)cc3)nc12 | / | -1.28
Cc1ccc(Nc2nc(-c3cccnc3)cs2)cc1 | -0.91 | -0.52
CC(=O)N1c2ccc(S(=O)(=O)N3CCCc4ccccc43)cc2CC1C (configuration not stated) | 0.84 | /
CC(=O)NCc1ccc(S(=O)(=O)NN)cc1 | / | -1.83
Cn1c(O)c(N=NC(=O)COc2ccc3ccccc3c2)c2cc(Br)ccc21 | / | -0.47
CCCNC(=O)CCCn1nc(C)n2c(cc3occc32)c1=O | 0.13 | 1.07
CC1CCN(c2ccc(-c3cccc(NS(=O)(=O)c4cccs4)c3)nn2)CC1 | 0.18 | /
Cc1ccc2oc(C(=O)Nc3sc4c(c3C#N)CCCC4)cc(=O)c2c1 | 0.99 | 0.48

Fetched by compound from the list above:
Molecule | HIV TAR-Tat | CDC25B-CDK2 inh
CC(=O)N1c2ccc(S(=O)(=O)N3CCCc4ccccc43)cc2CC1C (configuration not stated) | 0.84 | /
COC(=O)c1c[nH]n2c(NC3CCCC3)c(-c3ccc(C)cc3)nc12 | / | -1.28
CC1CCN(c2ccc(-c3cccc(NS(=O)(=O)c4cccs4)c3)nn2)CC1 | 0.18 | /
Cc1ccc(NS(=O)(=O)c2ccc(-c3cnc(C4CC4)o3)cc2)c(Br)c1 | 2.21 | /

The listing continues.
Molecule | HIV TAR-Tat | CDC25B-CDK2 inh
CC(NC(=O)[C@@H](c1ccccc1)N1Cc2ccccc2C1=O)c1ccc2c(c1)OCCO2 (some centres not stated) | 2.06 | -2.23
COc1ccc(NS(=O)(=O)c2cc(Br)cc3c2N(C(=O)C2CC2)CC3)cc1 | / | 1.69
CCNC(=O)c1c(NC(=O)c2cc(-c3ccc4c(c3)CC(C)O4)on2)sc2c1CCCC2 (configuration not stated) | 0.62 | -0.59
CC(C)NC(=O)Cn1c(=O)c2cccn2c2ccc(F)cc21 | 0.2 | /
CC1CCN(S(=O)(=O)c2ccc3[nH]c(=O)cc(C(=O)NCCCN4CCCCCC4)c3c2)CC1 | / | 0.11
CSc1n[nH]c(NC(=O)c2c(-c3c(Cl)cccc3Cl)noc2C)n1 | / | -1.8
Cc1cc(C)n(Cc2c(C(=O)NCCCN3CCCC3=O)noc2C)n1 | 0.92 | /
O=C1c2ccccc2C(=O)C1(c1ccccc1)N1CCN(Cc2ccccc2)CC1 | 2.07 | -1.12
S=C(Nc1ccc2[nH]ccc2c1)Nc1ccccc1N1CCOCC1 | / | 1.21
CC(C)c1ccc(NN2C(=O)CC(c3ccccc3)C2=O)cc1 (configuration not stated) | / | 0.46
CC(=O)Nc1nc2c(s1)Cc1ccccc1-2 | / | 18.5*
